High-throughput results (PubChem)
VACV Venus inh = inhibitors of vaccinia virus (Venus reporter); Vaccinia virus Venus reporter expression, fluorescence; Potency, µM (highest dose often 36.5 µM), for the others: at the top dose activity change, negative = inhibition, actives largely listed as inhibitors; actives 0.46% (n = 330,000); AID 720580; active means well fitted inhibition curve with a large enough effect; inconclusive means small, poorly fitted or top-dose-only effect; inactive means no such curve, though single readings can be large or run the other way; tested in A549 cells; further: nearly all actives have a fitted effect of over 30% in size; inactives centre near -10
VACV mCherry inh = inhibitors of vaccinia virus infection (mCherry reporter signal). Vaccinia virus mCherry reporter infection, fluorescence; about a quarter of the inactives have no number. Potency, µM (series often up to 36.5 µM), without a hit: at the highest dose activity change, negative = inhibition, hits mostly inhibitors. actives 0.63% (n = 310,000); active = well fitted inhibition curve with a large enough effect; inconclusive = small, poorly fitted or top-dose-only effect; inactive = no such curve, though single readings can be large or run the other way; tested in A549 cells; further: nearly all actives have a fitted effect of over 35% in size; inactives centre near -10
Numbers without * were called inactive; i = inactive; ? = inconclusive; nt = no result given; & = joins results of further samples; [ ] = remark or other dose. On the % scale 0 is the no-effect control and ±100 the full control effect; potency means the concentration at half of the fitted maximal effect.

SMILES	VACV Venus inh	VACV mCherry inh
C[C@H](CO)N1C[C@H](C)[C@@H](CN(C)C(=O)Oc2ccccc2)OCc2cn(nn2)CCCC1=O	-18%	-26%
O=C(NNC(=O)c1cccc(S(=O)(=O)Nc2ccccc2F)c1)c1ccncc1	-18%	i
COc1ccc(NC(=O)CN2CCc3ccccc3C2)c(OC)c1	-6%	?
CC(C)c1ccc(C(=O)N2CCCC(c3cc(C(=O)NCc4ccccc4)no3)C2)cc1 (stereo unspecified)	-14%	i
COc1cc(N2C(=O)c3ccccc3C2=O)c(Cl)cc1C(=O)OCC(=O)NCc1ccco1	-10%	nt
CCCCC(=O)NCCc1cc2ccc(OC)cc2[nH]c1=O	-17%	-15%
CCCCCCCCN1C(=O)[C@H](CC(=O)NCCCOC)C[C@@]2(C(=O)OCC)CCCC=C12	-17%	-11%
Cc1ccc2[nH]c3c(c2c1)SC(C)(C)CC3=O	-21%	-18%
Cc1cc(C)c2c(n1)nn1c(NCCOCCO)cc(C)nc21	-8%	-6%
Cc1ccc(CC(=O)NCCN2CCOCC2)cc1	-23%	-3%
COCCNCCCCSc1ccc(Cl)cc1	-14%	?
CCC(=O)Nc1ccc(Cl)c(NC(=O)c2ccccc2OC)c1	-1%	-14%
Cc1ccccc1-c1nnn(CC(=O)N2CCN(S(=O)(=O)c3ccc(Cl)cc3)CC2)n1	?	nt
NC(=O)NC(=O)COC(=O)c1ccc2noc(-c3ccccc3)c2c1	-4%	i
CCOC(=O)c1ccc(NC(=O)CCC(=O)N2Cc3ccccc3Oc3ncccc32)cc1	-20%	-16%
CCc1ccc(NC(=O)C2CCCN(S(C)(=O)=O)C2)cc1 (stereo unspecified)	-4%	-13%
CCCNC(=O)c1ccccc1C(=O)NCCC	-24%	nt
CCOc1ccccc1NC(=O)N1c2ccccc2Sc2ccccc21	-8%	-6%
O=C(NCc1ccccc1)c1onc(CSc2ccc(F)cc2)c1C(=O)NCc1ccccc1	-4%	i
COc1ccc(S(=O)(=O)N(C)CC(=O)NCc2ccccc2)cc1OC	-15%	-2%
CCOC(=O)c1sc(N2C(=O)c3oc4ccccc4c(=O)c3C2c2ccc(C(C)(C)C)cc2)nc1C (stereo unspecified)	3%	-4%
Cc1ccccc1SCC(=O)NCCCn1ccnc1	-5%	i
CCN(CC(=O)Nc1cc(Cl)ccc1C)C(=O)c1ccc2c(c1)NC(=O)C(C)S2 (stereo unspecified)	-19%	?
CCOC(=O)N1CCN(C(=O)C2CCCN(S(C)(=O)=O)C2)CC1 (stereo unspecified)	-14%	-21%
CC(C)Sc1ncc(Cl)c(C(=O)Nc2c(C(=O)Nc3ccccc3)oc3ccccc23)n1	6%	-7%
COc1ccccc1NS(=O)(=O)c1ccc(N2CCOCC2)c(NC(=O)c2ccco2)c1	-21%	-22%
O=C1NC(=O)/C(=C\c2ccc(Sc3ccc(Cl)cc3)o2)N1	0%	nt
CC(/C=C/c1ccccc1)=N\NC(N)=S	?	4µM*
O=C(CCc1nc(-c2ccccc2Cl)no1)Nc1cccnc1	-19%	-10%
Cc1csc2nc(COC(=O)c3ccc(Cl)c([N+](=O)[O-])c3)cc(=O)n12	-12%	-5%
Cc1ccc(NC(=O)C2(S(=O)(=O)c3ccc(Cl)cc3)CC2)cc1	-13%	i
CN1C(=O)C(O)(CC(=O)c2ccc(F)cc2)c2cc(Br)ccc21 (stereo unspecified)	2%	12%
CCc1c(-c2cccc(OC)c2)ncn1Cc1cccc(-c2ccccc2)c1	?	-18%
COc1ccc(S(=O)(=O)N2CCCC(C(=O)NCC3CCCO3)C2)cc1OC (stereo unspecified)	-10%	-9%
COc1ccc(NC(=O)CC2C(=O)N(c3ccc(OC)cc3)C(=S)N2NC(=O)c2cccc(F)c2)cc1 (stereo unspecified)	-22%	-7%
COCC(C)NC(=O)c1cccc([N+](=O)[O-])c1 (stereo unspecified)	-8%	-7%
Nc1c(Cl)ncnc1N/N=C/c1ccccn1	?	2.2µM*
COc1ccc(N2C(=O)[C@@H]3C[C@H]2CN3Cc2cccn2-c2nccs2)cc1Cl	-16%	-5%
COc1ccccc1-c1cc(C(=O)N/N=C\c2cn(C)nc2C)c2ccccc2n1	-4%	i
O=C(NC1CC(=O)N(c2ccccc2)C1)c1ccc(S(=O)(=O)N2CCCC2)cc1 (stereo unspecified)	-7%[7.34 µM]	3%[7.34 µM]
C/C(=N\NC(=O)c1n[nH]c2c1CCC2)c1cccs1	-8%	-6%
Cc1cc(C)cc(Nc2cc(C)nc3nc(C)nn23)c1	-5%	-16%
COc1ccc(Cl)cc1NC(=O)CSc1nnc(-c2ccco2)o1	-9%	-10%
Cc1cccc(OCC(O)CNC(=O)c2ccccc2C(=O)O)c1 (stereo unspecified)	-12%	-22%
O=C1C2C(c3cccc(/C=C/c4ccccc4)c3)CC=CC2C(c2ccc3ccccc3c2)N1Cc1ccccc1 (stereo unspecified)	-9%	-29%
COC(=O)C1CCN(c2csc3ccc(Cl)cc3c2=O)CC1	-1%	3%
CCN(CC(=O)Nc1c(F)cccc1F)C(=O)CSc1nc2ccccc2o1	-10%	-17%
Cc1cccc(NS(=O)(=O)c2ccc(C(=O)N3CCN(c4ccccc4O)CC3)cc2)c1C	?	?
Cn1nc(C(F)(F)F)c(-c2ccc(F)cc2)c1NC(=O)Nc1ccc(F)cc1	1%	-3%
CC(C)Oc1cccc(C(=O)C2CCCN(Cc3ccc4nonc4c3)C2)c1 (stereo unspecified)	-15%	-10%
CCN1CCN(S(=O)(=O)c2ccc(Cl)c(C(=O)NC(C)c3ccccc3Cl)c2)CC1 (stereo unspecified)	-19%	-18%
COc1ccc(C(CNC(=O)C2CCN(S(=O)(=O)c3ccc(F)cc3)CC2)N(C)C)cc1 (stereo unspecified)	-7%	-19%
N#Cc1ccc(-c2nc3ccc(Br)cn3c2Cc2ccccc2C(F)(F)F)cc1	-7%	10%
CN(C)CCNC(=O)c1cc2c(s1)-c1ccc(Cl)cc1SC2	3.5µM*	?
Cc1ccccc1CSCCNC(=S)Nc1ccccc1	-18%	i
CCN(CC)CCCNc1nnc(C)c(=O)[nH]1	5%	nt
CCc1nnc(NC(=O)[C@@H]2CCCN2S(=O)(=O)c2ccc3c(c2)OCCO3)s1	-4%	-13%
CC1=NN(c2ccccc2)C(=O)/C1=C\c1cn(-c2ccccc2)nc1C	-10%	4%
CC1CCCCN1Cc1c(O)ccc2c(=O)c(-c3ccccc3Cl)c(C(F)(F)F)oc12 (stereo unspecified)	5%	-5%
CC(=O)c1ccc(N2CCN(c3ncc(C(F)(F)F)cc3Cl)CC2)cc1	-8%	nt
The listing continues:
SMILES	VACV Venus inh	VACV mCherry inh
CCOc1cc(/C=N/NC(=O)C2CCCC2)ccc1O	-3%	-12%
CC(OC(=O)CC1CCCCC1)C(=O)Nc1cccc(C#N)c1 (stereo unspecified)	-8%	-10%
CCCCOc1ccc(C(=O)Nc2ccncc2)cc1	?	nt
COc1cccc(C(NC(=O)C2CCN(CCCOc3ccccc3)CC2)c2ccccn2)c1 (stereo unspecified)	-7%	30%[activator]
CCc1nnc(NC(=O)CSc2nnc(-c3ccc(NS(=O)(=O)c4ccccc4)cc3)o2)s1	-20%	i
COc1ccc(CCN(C(=O)/C=C/C(=O)O)C2CC(=O)N(c3ccccc3)C2=O)cc1 (stereo unspecified)	-10%	5%
Cc1nnc(NC(=O)CSCc2ccccc2)s1	0%	-9%
CC(C)CC(=O)c1c[nH]c(C(=O)NCC2CCCO2)c1 (stereo unspecified)	-4%	nt
O=c1c2ccccc2[nH]c2ccc(F)cc12	-5%	-13%
CCOc1ccc(NC(=O)CCCc2nc(-c3cccc(OC)c3)no2)cc1	-4%	-13%
CC(C)c1ccc(-c2nc3ccccc3s2)cc1	-10%	i
Cc1cccc(CSc2cn(CC(=O)N3CCCCCC3)c3ccccc23)c1	-22%	-18%
O=C(NCc1ccc2c(c1)OCO2)C1CCC(=O)N1C1CCCC1 (stereo unspecified)	-3%	-11%
COc1ccc(NC(=O)C(c2ccc(OC)cc2)N(C)C(=O)Cc2cccs2)cc1 (stereo unspecified)	-6%&-14%	-14%&-6%
CCOc1ccc(CN2CCNC(=O)C2CC(=O)NCC2CCOCC2)cc1 (stereo unspecified)	-11%	i
CCCCc1c(C)nc2c(OC)cccc2c1SCC(=O)O	-7%&-10%	-16%
CCn1c(SCC(=O)NC(C)(C)C)nnc1-c1ccncc1	-13%	-1%
O=C(COc1ccc(F)cc1)N1CCc2ccccc2C1	-13%	-7%
COCCN(C(=O)CCC(=O)Nc1ccccn1)C(C(=O)NC(C)C)c1ccc(Cl)cc1 (stereo unspecified)	-11%	10%
COc1ccc(S(=O)(=O)N2CCOCC2)cc1NC(=O)C1COc2ccccc2O1 (stereo unspecified)	-17%	-12%
CC(=O)N[C@@H](C)C(=O)NCC1Cc2cccc(-c3ccccc3C(F)(F)F)c2O1 (stereo partly specified)	-2%	-8%
Cc1ccc(C(=O)N/C(=C/c2ccco2)C(=O)NCc2ccco2)cc1	-8%	-12%
CC(=O)NC1C(OCc2ccccc2)OC2COC(C)(C)OC2C1O (stereo unspecified)	-21%	-3%
COc1cc(NC(=O)c2noc3c2CC(C)CC3)c(OC)cc1Cl (stereo unspecified)	-8%	i
COc1ccccc1N1C(=O)C2C(C(=O)c3ccccc3)=NN(c3ccccc3OC)C2C1=O (stereo unspecified)	0%	-14%
O=C1NC(c2ccccc2)(C(F)(F)F)SC2=CCCCCN12 (stereo unspecified)	-22%	i
COCc1c(Br)c(C)nc(OCC(=O)O)c1C#N	-7%	-23%
CCOc1cc(C2NC(=O)NC2=O)ccc1O (stereo unspecified)	-7%	-11%
COc1ccc(S(=O)(=O)N2CCc3ccccc3C2)cc1	-1%	i
COc1ccc(NC(=O)c2cc(Br)c(Br)s2)cn1	-14%	-18%
Cc1cc(C)c(NC(=O)CSc2nncn2-c2cccnc2)c(C)c1	-4%	-2%
COc1ccc(CCNC(=O)c2cc3c(=O)n(C)c4cc(Cl)ccc4c3s2)cc1OC	0%	2%
CSc1ccc(CNC(=O)CN2C(=O)C3CCCCN3c3ccc(C(=O)N4CCCC4)cc32)cc1 (stereo unspecified)	-2%	-4%
Cc1cc(C(=O)Nc2nnc(C(F)(F)F)s2)cs1	-14%	-2%
CCc1ccc(N2CC(C(=O)NC3CC3)CC2=O)cc1 (stereo unspecified)	5%	-13%
CC(=O)Nc1nnc(SCC(=O)N2CCc3ccccc32)s1	0%	-7%
O=C(NCCc1ccc(F)cc1)c1cc([N+](=O)[O-])ccc1N1CCOCC1	-12%	i
Cc1ccc2nc(N(CCN(C)C)C(=O)c3cc(Cl)sc3Cl)sc2c1	-13%	?
NC(CSS(=O)(=O)O)=NCCC12CC3CC(CC(O)(C3)C1)C2	-4%	-15%
CCCCCN(C(=O)CCC(=O)OCC(=O)N1CCCC(C)C1)c1c(N)n(CCCC)c(=O)[nH]c1=O (stereo unspecified)	-10%	-14%
Cn1c(Cc2ccccc2)nnc1SCC(=O)N1CCCCC1	0%	-5%
N#Cc1cc([N+](=O)[O-])ccc1NC(=O)COC(=O)C1CC2CCCC(C1)C2=O (stereo unspecified)	-10%	i
CCNC(=O)COC(=O)c1cc(-c2ccccc2)nn1-c1ccccc1	-4%	-7%
COc1ccc(CC(=O)NCC(=O)NCc2cc(=O)n(C)c(=O)n2C)cc1	6%[7.34 µM]	6%[7.34 µM]
Nc1ccc2nc(-c3ccc(Cl)cc3)[nH]c2c1	?	?
CCOC(=O)[C@]12Cc3c(cc(OC)c(OC)c3OC)[C@H]1N(Cc1ccccc1)C(=O)c1cc(OC)ccc12	?	?
CC(=O)Nc1ccccc1OCc1cc(=O)n2c(C)csc2n1	8%	-4%
CCCCn1c(N)c(N(CCOC)C(=O)COC(=O)Cc2cccc(OC)c2)c(=O)[nH]c1=O	-14%	i
CN(C)C(=O)Oc1cccc(NC(=O)N2CCOCC2)c1	-6%	nt
CCOC(=O)C1C(=O)OC2(CCCCC2)C1C(=O)OCC (stereo unspecified)	3%	-11%

Random draw from the library (roughly 0.87% active in at least one column).
